# SARS PLP yeast: SARS-CoV PLP inhibition in yeast. S. cerevisiae expressing SARS-CoV PLpro, growth rescue; control for the full effect not named in the record. Potency, µM (series often up to 32.9 µM), inactives show at the highest dose activity, positive = growth rescue. 0.19% of 330,000 active. AID 485353; further: 0% is about no effect; nearly all actives have a fitted effect of over 55% in size; growth read by luminescence after 48 h
# Cruzain inh noDet: inhibitors of Trypanosoma cruzi cruzain without detergent; Potency, µM, for inactives: max response, negative = inhibition, hits mostly inhibitors; 2.3% of 200,000 active; purified cruzain, Z-FR-AMC fluorescence, no detergent; active means well fitted curve in the direction sought with a large enough effect; inconclusive means small, poorly fitted or top-dose-only effect, or another doubt; inactive means no such curve, though single readings can be large; an effect the other way counts as inactive or inconclusive;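 further: plate controls were enzyme without inhibitor for no effect and buffer without enzyme for full effect; nearly all actives have a fitted effect of over 40% in size; top concentration of the series not given in the record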
# Target sequence (P25779 123-467 limits assumed): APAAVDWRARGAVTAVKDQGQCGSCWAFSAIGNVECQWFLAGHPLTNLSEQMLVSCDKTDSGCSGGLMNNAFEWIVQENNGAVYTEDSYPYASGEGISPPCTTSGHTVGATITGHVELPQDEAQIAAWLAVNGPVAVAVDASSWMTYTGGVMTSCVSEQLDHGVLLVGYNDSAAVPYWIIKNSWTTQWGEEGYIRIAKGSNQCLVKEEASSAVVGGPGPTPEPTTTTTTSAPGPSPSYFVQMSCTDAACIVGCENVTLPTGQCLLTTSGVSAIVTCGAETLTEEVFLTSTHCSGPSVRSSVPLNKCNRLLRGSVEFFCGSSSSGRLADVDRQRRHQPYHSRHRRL
#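 Purified cruzain at 1.5 nM, pre-incubated 15 min with compound at room temperature in 100 mM sodium acetate pH 5.5, 5 mM DTT, 0.00005% Triton X-100. Reaction started with 2 uM Z-FR-AMC; AMC fluorescence increase over 60 s gives rate.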
# MARV entry inh: inhibitors of Marburg virus binding or cell entry; Potency, µM (highest dose often 37.8 µM), for inactives: at the top dose activity change, negative = inhibition, hits mostly inhibitors; Marburg virus pseudotyped entry inhibition, cell reporter; control for the full effect not named in the record; about a third of the inactives were read at about 46 µM; 1.8% of 300,000 active; active = well fitted inhibition curve with a large enough effect; inconclusive = small, poorly fitted or top-dose-only effect, or effect the other way; inactive = flat fitted curve, though single readings scatter; tested in HEK293 cells; about a fifth of its hits are not listed in these tables; further: on the % scale 0 is the no-effect control and ±100 the full control effect; luciferase read-out
# LASV entry inh: blocks Lassa virus binding to or entry into cells | Lassa virus pseudotype entry inhibition, cell reporter; control for the full effect not named in the record | Potency, µM (highest dose often 37.9 µM), without a hit: top-dose activity change, negative = inhibition, most hits filed as inhibitors | 1.2% of 300,000 active | AID 540256; active means well fitted inhibition curve with a large enough effect; inconclusive means small, poorly fitted or top-dose-only effect, or effect the other way; inactive means flat fitted curve, though single readings scatter; tested in HEK293 cells; further: on the % scale 0 is the no-effect control and ±100 the full control effect; nearly all actives have a fitted effect of over 50% in size; luciferase read-out
# Cruzain inh Det: cruzain (T. cruzi) inhibition with detergent; Potency, µM, without a hit: max response, negative = inhibition, most hits filed as inhibitors; purified cruzain, Z-FR-AMC fluorescence, 0.01% Triton; AID 1478; 0.43% of 200,000 active; active means well fitted curve in the direction sought with a large enough effect; inconclusive means small, poorly fitted or top-dose-only effect, or another doubt; inactive means no such curve, though single readings can be large; an effect the other way counts as inactive or inconclusive;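 further: plate controls were neutral wells for no effect and buffer without enzyme for full effect; nearly all actives have a fitted effect of over 40% in size; top concentration of the series not given in the record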
#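 Detergent-containing run (0.01% Triton X-100) in acetate buffer pH 5.5 with 5 mM DTT: enzyme at 1.5 nM final, 15 min compound preincubation at room temperature, then 2 uM Z-FR-AMC substrate. Activity taken as 60 s fluorescence increase at 360/450 nm.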
# RE007 growth inh: less growth of the S. pombe RE007 Vpr strain; S. pombe RE007 Vpr strain, BacTiter-Glo ATP luminescence, 24 h; control for the full effect not named in the record; 0.21% of 360,000 active; AID 651644; Potency, µM (top dose mostly 92.2 µM), for the others: top-dose activity change, negative = less growth; active = well fitted falling curve with a large enough effect; inconclusive = small, poorly fitted or top-dose-only effect; inactive = no such curve, though single readings can be large or run the other way;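 further: on the % scale 0 is the no-effect control and ±100 the full control effect; nearly all actives have a fitted effect of over 50% in size; the assay follows cell death caused by Vpr and the record does not say whether a fall means rescue or toxicity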
#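 Fission yeast RE007 carrying one integrated HIV-1 vpr copy, seeded at OD 0.01 in PMG+AL medium with 23 nL pinned compound. Grown 24 h at 30 degrees; viability read by BacTiter-Glo luminescence after 5 min.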
# StopGo reporter: lowers the luciferase signal of an FMDV 2A StopGo reporter; human cells with a luciferase reporter of 2A StopGo recoding; control for the full effect not named in the record; Potency, µM (top dose mostly 57.9 µM), for the others: at the top dose signal change, negative = less light; 1.2% of 410,000 active; AID 1159524; active = well fitted falling curve with a large enough effect; inconclusive = small, poorly fitted or top-dose-only effect; inactive = no such curve, though single readings can be large or run the other way; tested in HEK293T cells; further: on the % scale 0 is the no-effect control and ±100 the full control effect; nearly all actives have a fitted effect of over 45% in size; luciferase light after 4 h
# NS1 inh: influenza NS1 inhibition; AID 2326; 0.4% of 270,000 active; S. cerevisiae slowed by influenza A NS1, growth recovery by OD600; Potency, µM (top dose mostly 46.1 µM), for inactives: at the highest dose activity, positive = more growth; further: actives are rising curves; nearly all actives have a fitted effect of over 50% in size
#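 S. cerevisiae expressing influenza A NS1, grown in glucose, washed, then diluted 1:100 into pH 6.0 -URA galactose medium with 23 nl compound. Growth recovery read as OD600; NS1-free strain serves as control.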
# The depositor's hits bear a star; ? = inconclusive; nt = not tested or not shown; & = joins results of further samples; [ ] = dose if it differs, or a comment. Unless noted, the call rests on the fitted dose curve; in most records, active means well fitted rising curve with a large enough effect; inconclusive means small, poorly fitted or top-dose-only effect; inactive means no such curve, though single readings can be large or run the other way. Potency means the concentration at half of the fitted maximal effect.
SMILES,SARS PLP yeast,Cruzain inh noDet,MARV entry inh,LASV entry inh,Cruzain inh Det,RE007 growth inh,StopGo reporter,NS1 inh
COc1ccc(NC(=O)COc2ccc(C(=O)OCC(=O)N(C(C)C)C(C)C)cc2OC)cc1,1%,nt,-1%,-10%,nt,1%,-8%,nt
COc1ccccc1NC(=O)Nc1nc(CC(=O)NCc2cccnc2)cs1,5%,nt,-6%,15%,nt,-7%,11%,nt
CCOc1cc(N2C(=O)CC3CS(=O)(=O)CC32)c(OCC)cc1NC(=O)c1ccccc1 (stereo not given),2%,4%,8%&6%,0%,-5.5%,-15%,2%,-11%
Cc1ccc(-c2[nH]nc3c2C(c2ccccc2OC(=O)N2CCOCC2)C(C#N)=C(N)O3)cc1 (stereo not given),-4%,25µM*,5%,21%[14.3 µM],2.1%,10%,-25%,-132%
CC(=O)c1ccc(NC(=O)CSc2nnc(Cc3cccn3C)n2-c2ccc(F)cc2)cc1,?,?,nt,nt,-13%,-13%,10%,-18%
O=C(Nc1cc(Cl)ccc1O)c1cc(-c2ccco2)on1,-2%,nt,-22%[46.1 µM],-16%,nt,-6%,48%[activator],-22%
COc1ccc(CN2CCN(C(=O)c3ccc(S(=O)(=O)NCc4ccco4)cc3)CC2)cc1,-3%,nt,0.32µM*,?,nt,-16%,?,nt
COc1ccc(N2CCN(CCCNC(=O)c3cnn(-c4ccc(F)cc4)c3-n3cccc3)CC2)cc1,nt,-13%,nt,?,-1.4%,nt,?,nt
O=C(NCCN1C(=O)S/C(=C\c2cccnc2)C1=O)c1cccc(OC(F)F)c1,0%,1%,-5%,5%,-17%,-9%,-6%,4%
CCOC(=O)c1c(NC(=S)NCCc2ccccc2)sc2c1CC(C(C)C)OC2 (stereo not given),10%,?,?,?,-20%,nt,?,4%
CCN1CCN(CC(O)COc2ccc(Cl)cc2)CC1 (stereo not given),-3%,6%,17%,18%,3.8%,4%,-16%,4%
COc1ccc(NC(=O)/C(C#N)=C/c2ccc(Sc3nncn3C)c([N+](=O)[O-])c2)cc1,0%,nt,?,4%[46.1 µM],nt,12%,32µM*,0%
Clc1ccc(-c2nc(Cc3ccccc3Cl)no2)cc1,-1%,7%,4%[46.1 µM],9%,-1.3%,13%,4%,10%
COC(=O)c1nc(N)sc1-c1ccc(OC)cc1,-6%,2%,-3%,?,-6.4%,10%,8%,2%
Cc1cccc(NC(=O)CSc2nc3ccccc3nc2N2CCOCC2)c1C,nt,-5%,-17%[46.1 µM],?,-1.6%,nt,-25%,nt
COc1ccc(N(CC(=O)NCCc2ccccc2)C(=O)CCC(=O)Nc2nccs2)cc1,-1%,nt,11%[46.1 µM],?,nt,-13%,-3%,20%
CCc1ccc(C(=O)c2cn(CC(=O)Nc3ccc(F)cc3)c3ccc(OC)cc3c2=O)cc1,nt,-3%,0%[46.1 µM],6%[46.1 µM],-9.8%,nt,-25%,nt
Cc1cccc(N2CCN(C(=O)c3cnn4c(C(F)F)cc(-c5ccccc5)nc34)CC2)c1C,5%,-18%,-6%,nt,1.7%,5%,?,7%
O=C(NCCCc1ccccc1)c1cccc([N+](=O)[O-])c1,-11%,0%,22%,24%,-1.6%,-22%,-4%,-16%
CCCCOc1ccc2c(c1)C(=O)c1cc(O)ccc1-2,-5%,nt,?,-11%,nt,-27%,15%,-30%
CN1C=CC=C/C1=C1\SC(=S)N(Cc2ccccc2)C1=O,2%,nt,?,-1%[46.1 µM],nt,5%,1%,nt
C=CCn1c(=O)c(C=Nc2c(OC)cccc2[N+](=O)[O-])c(O)n(CCCC)c1=O,8%,0%,3%,?,-10%,2%,-24%,4%
CCOc1ccc(NC(=O)CN2C(=O)CSc3ccc(S(=O)(=O)N4CCCC4)cc32)cc1,-5%,nt,nt,nt,nt,4%,-1%,-2%
CC(C)(Sc1cc(C(C)(C)C)c(O)c(C(C)(C)C)c1)Sc1cc(C(C)(C)C)c(O)c(C(C)(C)C)c1,17%,-11%&-2%&-9%,-4%,-7%,5.3%&0.4%&3.6%,-3%,-26%&-18%&-5%,19%
O=C1CC(Nc2ccccc2)C(=O)N1CCc1ccccc1 (stereo not given),19%,-3%,-26%[46.1 µM],?,6.3%,-22%,-16%,-2%
COc1ccc(CCNC(=O)CCc2c(C)nc3c(c(C)nn3-c3ccccc3)c2C)c(OC)c1,nt,-4%,-19%[46.1 µM],7%[46.1 µM],-1.6%,nt,-25%,nt
C(=N\n1cnnc1)/c1ccccc1OCCOc1ccccc1,-1%,-9%,?,-17%,-6.5%,-5%,8%,-23%
Cc1cc(C)c2oc(C(=O)Nc3ccc(S(=O)(=O)N4CCC(C)CC4)cc3)cc(=O)c2c1,1%,-13%&-16%,-15%[46.1 µM],10%[46.1 µM],-3.1%&-4.7%,-1%,?,18%
O=C(CCNC(=O)Cn1ccc2ccccc2c1=O)NCC1CCCC1c1ccccc1 (stereo not given),-3%,nt,-3%[46.1 µM],3%[46.1 µM],nt,-17%,-24%,12%
CCN(CC)C(=O)C(=O)N/N=C/c1cccs1,8%,5%,21%,27%,1.4%,18%,32%[activator],11%
COc1cccc(C2/C(=C(\O)c3ccc4c(c3)OCCO4)C(=O)C(=O)N2CCCN2CCOCC2)c1OC (stereo not given),-5%,nt,nt,nt,nt,-10%,-1%,3%
O=C(COc1ccc(Cl)cc1)NCCSCc1ccccc1Cl,-46%,-1%,6%,-3%,-6.3%,-12%,-9%,-56%
Cc1cccnc1NC(=O)c1cccc(S(=O)(=O)N2CCCC2)c1,0%,nt,3%,-1%[46.1 µM],nt,-19%,2%,nt
Cc1cccc(-c2nc3c(cnn3-c3ccccc3)c(=O)n2-c2ccc(Cl)cc2)c1,nt,?,nt,-7%[46.1 µM],-9.5%,nt,13%,nt
COc1cc(OC)cc(C(=O)OCc2ccc([N+](=O)[O-])cc2)c1,-1%,nt,?,0%[46.1 µM],nt,-5%,-21%,nt
CC(C)c1nnc(NC(=O)c2cc3cc(Br)ccc3oc2=O)s1,1%,nt,12%[46.1 µM],1%,nt,-7%,-26%,4%
Cc1ccc(S(=O)(=O)NCCC(=O)OCC(=O)NC(=O)c2cccn2C)cc1,2%,nt,nt,nt,nt,25%,-12%,0%
COc1cc(C(=O)N/N=C/c2coc3ccc(Cl)cc3c2=O)ccc1O,6%,nt,-5%[46.1 µM],0%[46.1 µM],nt,7%,-25%,4%
Cc1onc(-c2ccccc2Cl)c1C(=O)OCC(=O)N1CCN(c2ccccc2)CC1,3%,nt,?,-8%,nt,7%,-18%,nt
CCNC(=O)COC(=O)c1[nH]c(C)c(C(=O)OC)c1C,-5%,nt,?,0%,nt,1%,45%[activator],nt
CCOC(=O)C(C)(C)Sc1ncnc2nc[nH]c12,3%,-2%,18%,21%[14.3 µM],-2.4%,-9%,11%,0%
CSc1ccc(-c2nnn(Cc3ccc(Br)cc3)n2)cc1,-9%,-8%,15%[46.1 µM],?,-0.6%,-24%,34%[activator],-11%
Cc1cc(-n2c(C)nc3ccccc3c2=O)ccc1NC(=O)c1cccc([N+](=O)[O-])c1,nt,-14%,nt,15%[46.1 µM],-2.1%,nt,-25%,nt
CCOC(=O)c1c(C)[nH]c(C)c1S(=O)(=O)N1CCCC(C(=O)Nc2ccc(OC)c(Cl)c2)C1 (stereo not given),nt,24%,nt,16%[46.1 µM],-2.3%,nt,9%,nt
COC(=O)c1sccc1NS(=O)(=O)c1ccc(OC)cc1,0%,-1%,?,-23%,-2.5%,6%,nt,-23%
O=C(CN(C(=O)CCC(=O)Nc1ccccn1)c1ccccc1F)NCc1ccc2c(c1)OCO2,0%,nt,17%[46.1 µM],14%,nt,-23%,-4%,-6%
Cc1ccc(OCC(=O)Oc2c(C)cccc2C)cc1,11%,nt,nt,nt,nt,-20%,-1%,-13%
O=C(C1=COCCO1)N1CCN(c2nc3ccc([N+](=O)[O-])cc3s2)CC1,2%,nt,-15%,-5%,nt,7%,-28%,nt
N#Cc1nc(-c2cccc3ccccc23)oc1NCCN1CCCCC1,-8%,-8%,?,-8%,28µM*,-14%,5%,2%
Cc1ccc(C)c(N2CCN(c3nc4ccccc4n4c(C)nnc34)CC2)c1,nt,12%,nt,11%[46.1 µM],-8.7%,nt,-25%,nt
COc1ccccc1NC(=O)N(Cc1ccccc1)C1=NCC(C)S1 (stereo not given),1%,-2%,-22%,?,-2.9%,20%[3.69 µM],20%,-16%
CNC(=O)Cn1nc(C)c2ccccc2c1=O,4%,3%,-3%,2%,3.9%,-1%,-20%,-6%
O=C(NC1CCN(C(=O)c2cccc([N+](=O)[O-])c2)CC1)c1ccccc1,0%,nt,18%[46.1 µM],17%,nt,1%,5%,-3%
Cc1ccc(-n2c(SCC(=O)N3CCOCC3)nnc2-c2ccncc2)cc1C,6%,nt,nt,nt,nt,1%,0%,-68%
CCOC(=O)C(CC)n1cnc2c(oc3ccccc32)c1=O (stereo not given),7%,7%,2%,21%,0.8%,41%,34%[activator],-9%
CCn1c(SCC(=O)Nc2ccc(OC)cc2)nc2nc3c(cc2c1=O)COC(C)(C)C3,0%,nt,nt,nt,nt,-3%,-6%,-1%
O=C(c1ccccc1)N1CCC(c2nc3c(nnn3Cc3ccco3)c(=O)[nH]2)CC1,-10%,4%,nt,nt,-1.1%,0%,-16%,1%
CCC(=O)N1c2ccccc2CC1C(=O)N1CCN(c2cccc(OC)c2)CC1 (stereo not given),nt,-1%,nt,7%[46.1 µM],0.4%,nt,-5%,nt
CCOC(=O)c1cc(C)n(Cc2cccc(OC)c2OC)c1C,-9%,6%,-15%,-14%,-4.3%,5%,?,-22%
Cc1ccccc1-c1nc(CS(=O)CC(=O)NC2CC2)c(C)o1 (stereo not given),5%,nt,nt,nt,nt,-24%,-3%,4%

# (further entries)
SMILES,SARS PLP yeast,Cruzain inh noDet,MARV entry inh,LASV entry inh,Cruzain inh Det,RE007 growth inh,StopGo reporter,NS1 inh
CC1CCCCC1NC(=O)c1ccc(S(=O)(=O)NCC2CCCO2)cc1 (stereo not given),-3%,nt,?,0%,nt,-12%,4%,-4%
CN(C)c1ccc(C(=O)/C=C/c2ccco2)cc1,-38%,-4%,?,?,-20%,-18%,-10%,5%
O=C(CN1CCCN(S(=O)(=O)c2ccc(Br)cc2)CC1)Nc1ccc2c(c1)OCO2,13%,22%,nt,nt,-5.0%,nt,nt,-34%
O=C(N1CCCCC1)N1CCCN(C(=O)N2CCCCC2)CC1,-5%,1%,-2%[46.1 µM],8%,-3.5%,10%,-9%,9%

# Screens from PubChem.
